# Source: PubChem
# FGF22 binding: FGF22 (human) thermal shift binding. Q9HCT0. AID 651658. recombinant FGF22 thermal shift, SYPRO orange fluorescence; percent of sucrose octasulfate shift, DMSO zero. calls only at 9.99 µM. hit rate 1.5% among 340,000;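 active = melting point raised past a set limit in the mean and every replicate; three in four hits are not shown here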
# UCH37 inh: inhibitors of human deubiquitinating enzyme UCH37; Q9Y5K5; purified proteasome/UCH37, Ub-AMC cleavage fluorescence; inhibition, % (test concentration not listed); hit rate 0.33% among 330,000; AID 588478;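 active = mean of two replicates above 20%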;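 note: 0% = compound-free wells with enzyme and 100% = wells lacking proteasome; stock transfer was 100 nL into about 20 µL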
# Target sequence (Q9Y5K5 whole entry, looked up): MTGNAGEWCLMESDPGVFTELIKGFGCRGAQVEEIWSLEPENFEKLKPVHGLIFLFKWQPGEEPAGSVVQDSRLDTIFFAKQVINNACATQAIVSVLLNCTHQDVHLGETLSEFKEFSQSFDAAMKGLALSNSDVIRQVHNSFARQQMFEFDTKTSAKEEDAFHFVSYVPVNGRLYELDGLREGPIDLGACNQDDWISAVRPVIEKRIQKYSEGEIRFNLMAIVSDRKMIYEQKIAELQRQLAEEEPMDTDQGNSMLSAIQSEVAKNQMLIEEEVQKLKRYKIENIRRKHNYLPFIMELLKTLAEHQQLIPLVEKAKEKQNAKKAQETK
#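 Signal – fluorescence, ex 355 nm, em 460 nm · System – Proteasome-bound UCH37 · Input – 0.15 nM proteasome as dispensed · Timing – 30 min preincubation with enzyme, 25 min cleavage at room temperature · Read-out basis – percent inhibition of cleavage signal versus uninhibited and no-proteasome wells · Medium – Tris-HCl pH 7.4 with ATP-MgCl2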
# ALR inh: inhibitors of human sulfhydryl oxidase ALR | inhibition, % (no concentration beside the values) | hit rate 3.8% among 290,000 | purified ALR, DTT oxidation, H2O2 HRP-luminol luminescence;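 active = mean and each replicate at 75% or more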;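 note: stock transfer was 7.5 nL into about 7.5 µL; 0% = neutral wells and 100% = wells with inactivated enzyme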
# Target sequence (P55789 whole entry, looked up): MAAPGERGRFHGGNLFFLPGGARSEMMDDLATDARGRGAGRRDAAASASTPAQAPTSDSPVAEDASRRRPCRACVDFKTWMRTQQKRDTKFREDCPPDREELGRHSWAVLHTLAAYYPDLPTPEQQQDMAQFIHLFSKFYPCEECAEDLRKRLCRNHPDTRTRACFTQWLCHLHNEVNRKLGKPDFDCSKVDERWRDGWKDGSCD
# B2AR ag: activates human beta-2 adrenergic receptor causing internalization | Am2.2-beta2AR cells, FAP receptor internalization, flow cytometry; reference of the scale not given here | P07550 | response, % (concentration not given with the values) | AID 504454 | hit rate 0.43% among 340,000;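 active = response above a set limit, near 3 SD of response in nonfluorescent compounds, cut at about 42% in these data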;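 note: stock transfer was 100 nL into about 11 µL; a reference agonist was the positive control; negative values mostly stem from fluorescent compounds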
# Target sequence (P07550 whole entry, looked up): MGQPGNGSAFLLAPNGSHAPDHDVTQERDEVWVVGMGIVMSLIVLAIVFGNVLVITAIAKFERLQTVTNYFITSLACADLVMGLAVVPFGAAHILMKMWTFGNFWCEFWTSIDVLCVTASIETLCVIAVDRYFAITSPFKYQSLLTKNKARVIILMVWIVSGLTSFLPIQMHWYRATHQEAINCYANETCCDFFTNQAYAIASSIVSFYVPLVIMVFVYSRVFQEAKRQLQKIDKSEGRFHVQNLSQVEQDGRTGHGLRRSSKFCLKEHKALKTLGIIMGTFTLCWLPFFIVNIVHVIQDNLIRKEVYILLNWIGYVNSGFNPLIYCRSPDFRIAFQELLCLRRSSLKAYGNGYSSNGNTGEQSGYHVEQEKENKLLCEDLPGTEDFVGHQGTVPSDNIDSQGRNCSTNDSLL
# HNF4A DNA FP: change in binding of human HNF4 alpha to DNA. activity change, % at 10 µM. HNF4a-FITC DNA binding, fluorescence polarization, 1 h. P41235. hit rate 0.3% among 360,000; in the data active = activity change above about 30%, passing the limit was not always enough;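 note: controls were the assay level and a saturating level of protein; the project sought stronger binding though the title names inhibitors; some compounds called inactive have numbers as strong as hits; positive values seem to mean higher polarization but the record does not say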
# LANA-H2A inh: blocks KSHV LANA binding to histone H2A/H2B; hit rate 0.6% among 320,000; inhibition, % (test concentration not listed); cell-free LANA-H2A/H2B peptide, fluorescence polarization; AID 2629; in the data active = inhibition mostly above about 10%, no sharp cut-off; inactive = mostly below about 6.7%;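 note: stock transfer was 7.5 nL into about 10 µL; 0% = median of vehicle wells and 100% = median of positive control wells; one replicate is shown; the record names a cut of 25% in any replicate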
# E coli growth: E. coli growth inhibition | Escherichia coli growth, OD600, 23 h; hits give low values | OD600 absorbance (concentration not given with the values) | hit rate 0.21% among 330,000;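 active = OD600 absorbance below the run mean of sample wells minus 3.6 SD, in any replicate, cut at about 0.56 in these data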;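 note: stock transfer was 300 nL into about 60 µL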
# * = called active by the depositor; i = inactive; . = no result given. This is a subset. The share of hits here may be higher or lower than overall.
SMILES,FGF22 binding,UCH37 inh,ALR inh,B2AR ag,HNF4A DNA FP,LANA-H2A inh,E coli growth
COc1ccc(-n2c(=O)[nH]cc(C(=O)Nc3ccc(NC(C)=O)cc3)c2=O)cc1,.,1.8,-3,0,0.7,5.3,0.67
Cc1cc(C)cc(-n2c(C)cc(/C=N/NC(=O)CSc3ncccn3)c2C)c1,.,.,-8,4,-0.1,0.5,.
Fc1ccccc1CSc1ccc(-c2ccco2)nn1,i,-0.5,.,-4,1.0,1.1,0.67
Cc1ccc(C(=O)NNC(=O)C2CC2)cc1Br,i,-0.4,88*,-5,0.0,-2.2,0.62
CCN1C(=O)C(=O)c2cc(C)ccc21,i,1.7,-7,1,0.9,3.5,0.66
O=C(CCNC(=O)c1ccc([N+](=O)[O-])cc1)Nc1ccc(Cl)c(S(=O)(=O)N2CCOCC2)c1,i,1.7,-5,-6,-4.3,-3.9,0.67
CCCCN(C)C(=O)c1ccc(CS(=O)(=O)c2ccccc2C)o1,i,5.2,60,31,-0.3,2.3,0.72
COc1ccc(CCNC(=O)C2CC(=O)N(C3CCCCCCC3)C2)cc1OC (centres undefined),.,-5.2,-4,2,-0.3,-2.6,0.73
Cc1ccc2c(Cl)cc(Cl)c(OCC(=O)N3CCCC3)c2n1,i,1.2,-90,-1,4.9,-3.7,0.72
Cc1nc2nc(SCC(=O)C(C)(C)C)[nH]c2cc1Br,.,3.8,0,-2,-0.8,-1.9,0.78
Cc1cc(C)c(C)c(OCCOCCN2CCN(C)CC2)c1,.,0.6,-5,-4,2.8,1.4,0.68
CCOc1ccc(N(CC(=O)NCc2ccc(F)cc2)C(=O)CCC(=O)Nc2nccs2)cc1,i,1.5,-2,3,1.9,-2.6,0.71
CCn1c(/C=C/N(C)c2ccccc2)[n+](CC)c2ccc(Cl)cc21,.,23*,-3,-2,6.7,-0.1,0.67
Cc1cccc(C)c1NC(=S)N/N=C/c1ccccc1C(=O)O,i,.,-23,1,3.2,-3.6,.
COc1cccc(F)c1C(=O)NC(=O)Nc1ccc2nc(C)oc2c1,.,0.4,0,-8,-15,6.1,0.72
CN1CCN(c2ccc(Cl)cc2NC(=O)c2cc(=O)[nH]c3ccccc23)CC1,i,7.8,-3,16,0.1,-2.5,0.67
COc1ccc(CCNC(=O)c2cccc(S(=O)(=O)N3CCc4ccccc4C3)c2)cc1,i,1.0,2,-4,2.2,-4.9,0.68
Cn1nccc1NC(=O)CSCC(=O)O,i,3.9,-2,-2,2.9,11,0.66
COc1ccccc1N1CCN(C(=O)Cn2nnc(-c3ccncc3)n2)CC1,.,2.9,2,0,-1.6,16,0.69
CC(C)OC(=O)c1c(NC(=O)c2cnn3c2NC(c2ccccc2)CC3C(F)(F)F)sc2c1CCCC2 (centres undefined),.,-283,-16,0,-3.1,-3.2,0.84
COCCNC(=O)CS(=O)Cc1nc(-c2ccccc2C)oc1C (centres undefined),i,-0.4,98*,8,5.2,1.0,0.76
COC(=O)c1c(NC(=O)/C=C/C(=O)O)sc(C)c1-c1ccc(C)c(C)c1,.,6.9,.,3,3.2,-0.9,0.67
CC(c1nnc(SCC(=O)Nc2cc([N+](=O)[O-])ccc2F)n1Cc1ccccc1)N(C)C (centres undefined),i,0.7,0,2,-1.2,-1.7,0.71
C=C(C)COc1ccc(-c2ncnc(C(F)(F)F)c2-c2ccccc2)c(O)c1,i,3.5,1,-6,2.0,4.0,0.65

# Single records, as listed above.
# Listed for Fc1ccccc1CSc1ccc(-c2ccco2)nn1 = FGF22 binding = i; UCH37 inh = -0.5; ALR inh = .; B2AR ag = -4; HNF4A DNA FP = 1.0; LANA-H2A inh = 1.1; E coli growth = 0.67
# Listed for CCN1C(=O)C(=O)c2cc(C)ccc21 = FGF22 binding = i; UCH37 inh = 1.7; ALR inh = -7; B2AR ag = 1; HNF4A DNA FP = 0.9; LANA-H2A inh = 3.5; E coli growth = 0.66

# 3 entries from above, arranged by number of heavy atoms, high to low.
SMILES,FGF22 binding,UCH37 inh,ALR inh,B2AR ag,HNF4A DNA FP,LANA-H2A inh,E coli growth
COc1ccc(CCNC(=O)c2cccc(S(=O)(=O)N3CCc4ccccc4C3)c2)cc1,i,1.0,2,-4,2.2,-4.9,0.68
C=C(C)COc1ccc(-c2ncnc(C(F)(F)F)c2-c2ccccc2)c(O)c1,i,3.5,1,-6,2.0,4.0,0.65
COc1cccc(F)c1C(=O)NC(=O)Nc1ccc2nc(C)oc2c1,.,0.4,0,-8,-15,6.1,0.72

# (more compounds)
SMILES,FGF22 binding,UCH37 inh,ALR inh,B2AR ag,HNF4A DNA FP,LANA-H2A inh,E coli growth
CC(=O)Nc1ccc(N(C)C)cc1[N+](=O)[O-],.,3.2,10,1,-0.9,-4.8,0.68
CCc1ccc(NC(=O)/C(C#N)=C\c2ccc(OC)c(C(=O)O)c2)cc1,.,11,99*,-5,-3.4,-6.0,0.7
Cc1ccccc1CNC(=O)C1CCC(=O)N(C2CC2)C1 (centres undefined),i,4.1,0,1,5.2,2.0,0.68
CS(=O)(=O)c1ccc(Cl)c(NC(=O)COC(=O)CNC(=O)c2sc3ccccc3c2Cl)c1,i,1.2,0,-2,3.6,5.0,0.56
O=C(Nc1ccccc1-c1ccccc1)C(=O)Nc1ccccc1-c1ccccc1,.,-16,-2,.,.,2.3,0.69
S=C1NCN(Cc2cccnc2)CN1c1cccc(Cl)c1,i,2.5,-4,-4,2.7,-7.7,0.66
CCCC(=O)NC(=S)Nc1ccccc1F,.,0.0,0,-2,0.7,0.5,0.71
CC1CCCC(C)N1C(=O)COC(=O)c1ccco1 (centres undefined),i,0.7,1,-6,-1.1,-5.7,0.73
CCOC(=O)c1[nH]c2ccc(OCC)cc2c1NC(=O)CN1CCCC(C)C1 (centres undefined),.,-53,6,-8,-2.1,1.1,0.68
COc1ccc(NC(=O)c2c(N)cnn2C)cc1,i,1.7,-42,-8,1.5,5.2,0.67
CC(=O)N1CC(=O)N(Cc2ccccc2)/C(=C/c2ccccc2)C1=O,i,3.4,3,-2,0.8,-4.6,0.7
CN(C(=O)c1ccc(S(=O)(=O)N2CCOCC2)cc1)C1CCS(=O)(=O)C1 (centres undefined),i,4.5,6,-4,-3.6,-0.5,0.63
COc1ccc(CCNc2nc(-c3ccccn3)cs2)cc1OC,i,.,-12,-2,-6.4,3.7,.
S=C(Nc1ccc2nsnc2c1)N1CCCC1,i,10,-38,-1,-6.5,-14,0.66
O=C(CSc1nc(O)cc(=O)n1-c1ccccc1)Nc1ccc(Br)cn1,i,1.8,44,-1,1.4,-5.3,0.67
CCOc1cc(/C=N/NC(=O)c2cccnc2)ccc1OCC(N)=O,i,.,.,6,3.3,1.5,.
Cc1cc(C)n2nc(SCC(=O)N(C)C)nc2n1,.,0.5,.,-19,0.2,4.6,0.75
CC1(C)NC(=O)N(CC(=O)OCC(=O)Nc2cccc(F)c2)C1=O,.,-1.7,-8,-2,1.0,-0.1,0.72
CC(=O)CSc1nc2ccc(Nc3nc(N4CCOCC4)nc(N4CCOCC4)n3)cc2s1,.,3.7,99*,13,-1.6,2.8,0.65
COc1ccc2[nH]c(=O)c(CN(CC3CCCO3)S(=O)(=O)c3ccccc3F)cc2c1 (centres undefined),i,-125,-8,3,-0.3,0.2,0.66
C=CCn1c(SCC(=O)NC2CC2)nc2ccccc2c1=O,i,3.2,.,-8,0.1,-2.5,0.66
C/C=C(\C)C(=O)O[C@@H]([C@H](O)c1cc2ccc(=O)oc2cc1OC)C(C)(C)O,i,3.0,-3,-7,2.2,2.6,0.81
CCC1CCCCN1CCCNC(=O)c1c(O)nc2c(C)cccn2c1=O (centres undefined),i,-35,-4,0,3.0,-1.9,0.69
COc1ccc(OC)c(NC(=O)C(C)SCc2nc3sc(C)c(C)c3c(=O)[nH]2)c1 (centres undefined),i,3.0,.,6,0.1,-6.5,0.62
CC(=O)n1c2c(c3ccccc31)OC(N)=C(C#N)C2c1cccc(Cl)c1Cl (centres undefined),.,0.9,19,3,4.7,7.9,0.77
Cc1c(C)n2c(SCC(=O)NC3CCCCC3)nnc2[nH]c1=O,i,5.0,0,-8,-6.8,-8.4,0.64
COC(=O)C(C)Oc1cc(C)ccc1COc1ccc(-n2nc(C)n(C(F)F)c2=O)cc1 (centres undefined),i,1.4,11,3,-1.3,-6.7,0.67
Cc1csc(NC(=O)CSc2nnc(-c3ccoc3C)n2C(C)c2ccccc2)n1 (centres undefined),i,1.6,-5,-1,-2.0,-7.6,0.67
c1ccc2c(c1)CCc1snnc1-2,i,0.7,-23,4,-0.5,-1.8,0.64
COCCNC(=O)c1ccccc1NC(=O)Cc1ccccc1[N+](=O)[O-],.,4.7,-7,5,2.2,2.9,0.65
CCn1c(COc2ccc(Cl)cc2)nnc1SCc1nc2ccccc2[nH]1,.,-0.3,-2,-3,0.3,-3.0,0.58
O=C(NCCS(=O)(=O)c1ccc(Br)cc1)c1ccccc1Cl,i,1.8,-1,-13,-0.3,-4.6,0.68
O=C(CCN1C(=O)C2C3CCC(C3)C2C1=O)Nc1cccc(Cl)c1 (centres undefined),i,1.2,8,1,1.6,-5.8,0.66
CCOCCCn1c(-c2ccc(Cl)cc2)n[nH]c1=S,.,-0.4,22,4,1.2,-6.9,0.72
COc1ccc(Cl)cc1NC(=O)[C@@H]1CCCN1C(=O)c1cccs1,.,4.5,-41,-5,4.4,0.8,0.71
COc1ccc(C(CNC(=O)c2cccc(S(=O)(=O)NCc3ccccc3)c2)N2CCOCC2)cc1 (centres undefined),i,.,.,13,0.9,0.0,.
Nc1c(S(=O)(=O)c2ccccc2)c2nc3ccccc3nc2n1C1CC1,i,-445,99*,3,3.2,3.9,0.71
Cc1ccc(S(=O)(=O)NCCc2nnc3ccc(SCc4cccnc4)nn23)cc1,i,3.6,-2,-8,-1.1,-5.1,0.71
O=C(C1CCCN(c2ncnc3c2nc2n3CCCCC2)C1)N1CCN(c2ccc(Cl)cc2)CC1 (centres undefined),i,1.6,0,13,-9.9,-2.3,0.64
COCCNc1nc(=S)[nH]c2cc(OC)c(OC)cc12,.,7.7,-1,-1,-1.8,-2.4,0.71
Cc1ccc(NC(=O)CO/N=C/c2ccccc2C)c(C)c1,.,.,-22,2,4.1,-1.0,.
Cn1c(=S)c2[nH]c(SCCC(C)(C)C)nc2n(C)c1=O,i,.,.,-9,1.8,.,.
Cn1nnc2c(sc3nc(N4CCOCC4)c4c(c32)CCCC4)c1=O,.,1.6,-14,-4,-0.1,3.1,0.76
CCNC(=S)N/N=C/c1cccc(/C=N/NC(=S)NCC)c1,.,.,-6,-1,0.2,-4.1,.
O=C(COC(=O)c1cnccn1)Nc1c(Cl)cc(Cl)cc1Cl,i,-0.8,.,-1,3.8,.,0.67
CC(/C=N/NC(=O)c1ccccn1)=C\c1ccco1,i,.,.,2,-3.1,.,.
CC(OC(=O)c1cc(=O)c2cc(Cl)ccc2o1)C(=O)N1CCCC1 (centres undefined),i,4.5,.,-3,-3.3,.,0.65
O=C(Nc1ccccc1N1CCOCC1)c1ccc2c(c1)C(=O)N(Cc1ccncc1)C2=O,.,2.4,.,3,4.3,0.0,0.69
CC(C)CN(CC(C)C)C(=O)c1cc(S(=O)(=O)N2CCCCC2)c[nH]1,i,-0.2,-13,2,2.5,-2.5,0.63
COc1ccc(C2NC(=O)NC(C)=C2C(=O)Nc2cccc(C)c2C)cc1 (centres undefined),i,-1.7,-6,5,-3.2,1.7,0.73
CCOC(=O)C1=C(COC(=O)C2CC(=O)N(CCc3ccccc3)C2)NC(=O)NC1C (centres undefined),i,0.6,-7,1,-0.1,2.7,0.71
CCc1sc(C(=O)NNC(=O)c2cncc(Br)c2)cc1C,i,1.7,-2,-1,-1.8,3.3,0.67
C=CCc1cccc(CNc2ccc(Br)cc2)c1O,i,5.9,98*,1,-0.6,3.0,0.67
CC(Oc1ccc(F)cc1)C(=O)Nc1ccccc1C(=O)NC1CC1 (centres undefined),i,3.4,-1,15,-4.7,-0.4,0.69
Cc1cccc2sc(NC(=O)c3cccc(S(=O)(=O)N4CCc5ccccc54)c3)nc12,.,-36,-2,1,-3.3,1.4,0.74
Cc1ccccc1-n1c(SCC(=O)N/N=C/c2sccc2C)nc2ccccc2c1=O,.,.,-4,4,-1.2,4.4,.
